High-throughput results deposited in PubChem BioAssay by National Center for Advancing Translational Sciences (NCATS).
TRPML1 agonist: agonists of human TRPML1 channel. Q9GZU1. TRPML1-expressing cells, Ca2+ dye fluorescence, FDSS; host cell line not named in the record; reference of the full effect not given here. activation, % (no concentration beside the values). actives 0.12% (n = 410,000). AID 624414; in the data active = activation above about 50%; inconclusive = about 30% to 50%; inactive = below about 30%; further: 0% is about no effect; the text of the record puts the active cut at 80%
Target sequence (Q9GZU1 whole entry, looked up): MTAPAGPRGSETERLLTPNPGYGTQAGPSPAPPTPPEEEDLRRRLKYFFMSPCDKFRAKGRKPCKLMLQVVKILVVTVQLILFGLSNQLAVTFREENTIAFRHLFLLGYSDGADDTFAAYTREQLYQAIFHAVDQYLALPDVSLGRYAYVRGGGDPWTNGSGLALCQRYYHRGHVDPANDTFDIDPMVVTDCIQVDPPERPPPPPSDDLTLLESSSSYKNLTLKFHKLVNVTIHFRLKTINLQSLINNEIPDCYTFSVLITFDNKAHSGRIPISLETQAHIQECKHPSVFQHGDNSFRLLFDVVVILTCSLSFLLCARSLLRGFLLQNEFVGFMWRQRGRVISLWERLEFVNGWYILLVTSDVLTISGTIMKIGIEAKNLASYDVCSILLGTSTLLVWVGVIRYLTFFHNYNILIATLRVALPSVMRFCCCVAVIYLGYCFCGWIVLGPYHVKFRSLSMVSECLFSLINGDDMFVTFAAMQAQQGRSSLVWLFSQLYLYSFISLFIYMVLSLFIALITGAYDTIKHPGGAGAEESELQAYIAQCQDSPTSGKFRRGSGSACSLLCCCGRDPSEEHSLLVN
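Calcium fluorescence on an FDSS kinetic reader gave the read-out. Tet-induced TRPML1-DL cells were plated overnight, dye-loaded (Ca8 with quencher, 45-90 min, room temperature, dark), then read 110 s after compound addition, and again 110 s after 4uM final 54-4 (EC80).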
TRPML1 blocker: human mucolipin-1 channel inhibition | activity change, negative = inhibition, % (no concentration beside the values) | TRPML1-inducible cells, Ca2+ dye fluorescence, FDSS; active compounds read low; inhibition of EC80 agonist-evoked calcium signal | AID 624415 | actives 0.02% (n = 390,000) | Q9GZU1; in the data active means activity change below about -50%; inconclusive means about -30% to -50%; inactive means above about -30%;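 further: stimulus is agonist 54-4 at its EC80 concentration; on the % scale 0 is the no-effect control and ±100 the full control effect; compound concentration not given in the record; the text of the record puts the active cut at -80%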
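TRPML1-DL cells, Tet-induced overnight (~16 h, 37 °C) at 1,500 cells/well, were loaded with Ca8 no-wash dye plus quencher for 45-90 min at room temperature. Compounds were pinned during FDSS kinetic reading; agonist 54-4 at EC80 (4 uM final) then added.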
Active calls of the source: *; u = inconclusive. An excerpt (hit frequency here may not be typical).

Fields: TRPML1 agonist | TRPML1 blocker
1	COc1cc(C)ccc1OCCSc1nc(-c2cccc(C)c2)nc2cc(=O)[nH]n12
    -0.4 | -13
2	Cc1ccc(-n2c(=O)c3c(c4cc(C)ccc4n3C)n(CC(=O)Nc3cc(C)cc(C)c3)c2=O)cc1
    1.1 | 4
3	COc1ccc(CCNC(=O)CCCCn2c(=O)c3ccccc3n(Cc3ccccc3Cl)c2=O)cc1OC
    3.4 | 22
4	Cc1ccc(C)c(S(=O)(=O)c2nnn3c2nc(NC(C)C)c2sccc23)c1
    2.3 | 37
5	O=C1N(Cc2ccccc2)c2ccc(Cl)cc2C1(O)c1c[nH]c2ccccc12 (stereo not given)
    -0.6 | -4
6	Cc1ccc(-c2csc(=Nc3ccccc3)n2CCCO)cc1
    0.9 | 3
7	CN(C(=O)c1c2c(nc3ccccc13)C(=O)N(C1CCCCC1)C2)c1ccc(F)cc1
    0.6 | -13
8	COc1ccccc1C1C(C(N)=O)=C(C)Nc2nc(SCc3ccccc3F)nn21 (stereo not given)
    0.1 | 9
9	O=C1CC(c2c(F)cccc2Cl)c2c(ccc3ccccc23)N1 (stereo not given)
    -0.5 | -25
10	CCOC(=O)c1c(-c2ccc(OC)cc2)oc2ccc(OCc3ccc(C(=O)OC)cc3)cc12
    0.7 | -4
11	CCc1ccc(-c2ccc(C(=O)Oc3ccc(Br)cc3)cc2)nc1
    -0.7 | 7
12	Cc1cc2nc(-c3ccc(OCc4ccccc4C)cc3)cc(C(F)(F)F)n2n1
    -0.9 | -10
13	O=C(CSc1nc(=O)n(Cc2ccncc2)c2c1CCC2)Nc1ccc(F)cc1F
    -0.8 | -4
14	COc1ccccc1CNC(=O)c1ccc(CS(=O)c2ccccc2Cl)o1 (stereo not given)
    -0.3 | 7
15	O=C(Cn1cnc2onc(-c3ccc(F)cc3)c2c1=O)N1CCN(c2ccccc2F)CC1
    1.9 | -7
16	Cc1ccc(S(=O)(=O)C(CNC(=O)c2ccc(C(F)(F)F)cc2)c2ccco2)cc1 (stereo not given)
    1.5 | 16
17	Cc1cccc(C)c1OCC(=O)NCC1(N(C)C)CCCCC1
    -0.2 | 7
18	CS(=O)(=O)N(CC(=O)NCCSc1ccccc1)c1cc(C(F)(F)F)ccc1Cl
    -1.1 | 0
19	COc1ccccc1CNc1ccc(-c2nc(-c3ccco3)no2)cc1[N+](=O)[O-]
    0.1 | 2
20	CCc1ccc(NC(=O)CC2C(=O)N(c3cccc(C)c3)C(=O)N2Cc2cccc(OC)c2)cc1 (stereo not given)
    2.2 | 12
21	CCOC(=O)c1ccc(NC(=O)C(Cc2ccccc2)NS(=O)(=O)c2ccc(Br)s2)cc1 (stereo not given)
    1.1 | 15
22	COc1ccc(C)cc1NC(=O)c1cc2c(=O)n3cccc(C)c3nc2s1
    0.6 | -9
23	Cc1ccc2oc(-c3cc(NC(=O)c4ccc5c(c4)OCCO5)cc(C)c3O)nc2c1
    0.5 | 8
24	CCCSc1ncc(Cl)c(C(=O)N(Cc2ccc(Cl)cc2)Cc2ccco2)n1
    3.8 | 59
25	Cc1ccc(-c2nnc(Nc3ccc(O)cc3)c3ccccc23)cc1S(=O)(=O)NC(C)(C)CO
    1.1 | u
26	CCC(Sc1nc(-c2ccccc2)[nH]c1S(=O)(=O)c1ccc(C)cc1)C(=O)O (stereo not given)
    0.0 | 2
27	Cn1c(=O)oc2cc(S(=O)(=O)N3CCCC(C(=O)Nc4ccc(Br)cc4F)C3)ccc21 (stereo not given)
    0.3 | 0
28	CCCCn1c(-c2ccc(C)cc2)c(C)n2c3c(=O)n(C)c(=O)n(C)c3nc12
    1.7 | 78
29	CN(C)C(=O)c1ccc(S(=O)(=O)NCc2ccc(Cl)cc2)s1
    -0.9 | 1
30	Cc1ccccc1-c1nc(CS(=O)(=O)CC(=O)NCC(C)c2ccccc2)c(C)o1 (stereo not given)
    3.1 | 8
31	COc1ccc(OC)c(NC(=O)c2cnc(N3CCCC3)nc2C)c1
    2.6 | 10
32	O=C(CSc1nc2nccnc2c(=O)n1CCc1c[nH]c2ccccc12)Nc1ccc(F)cc1
    1.1 | 6
33	O=c1c2c3c(sc2n(Cc2cc(=O)n4ccccc4n2)c(=O)n1-c1ccc(Cl)cc1)CCC3
    0.6 | -4
34	CCOc1ccc2ncc3c(-c4ccc(C)cc4)nn(-c4cccc(F)c4)c3c2c1
    1.2 | -6
35	CC(C)(C)OC(=O)N1CCCC1C(=O)NC1COC2CC(n3ccc(=O)[nH]c3=O)OC12 (stereo not given)
    0.6 | -4
36	CCOc1ccc(-c2cn(-c3ccc(C)cc3)c(SCC(=O)Nc3ccc(C)cc3)n2)cc1
    -0.6 | 19
37	Cc1cccc2c1-c1sc(C(=O)NCCCN3CCN(c4cccc(Cl)c4)CC3)cc1CO2
    2.1 | -2
38	COc1ccc(NC(=O)CSc2nc3ccccc3n2CC(=O)NCc2ccc(F)cc2)cc1
    -0.5 | 16
39	Cn1cnc(S(=O)(=O)N2CCCC(C(=O)NCc3ccc(F)cc3)C2)c1 (stereo not given)
    2.4 | 23
40	CCOC(=O)c1cc(OC(=O)c2ccc(OC)cc2)n(-c2ccccc2)n1
    1.2 | 6
41	COc1ccc(Cl)cc1NC(=O)CN(c1cccc(C)c1C)S(=O)(=O)c1ccccc1
    -0.1 | 78
42	O=C(COc1ccccc1F)Nc1ccccc1C(=O)OCc1cc(=O)n2nc(C3CC3)sc2n1
    -0.9 | 6
43	CCC(C)n1c(SCC(=O)Nc2ccccc2C(=O)OC)nc2ccsc2c1=O (stereo not given)
    3.5 | 0
44	N#Cc1nc(/C=C/c2ccc(F)cc2)oc1N1CCCCCC1
    0.8 | 56
45	O=C(Nc1cccc(Cl)c1Cl)c1cc(S(=O)(=O)NCc2ccc3c(c2)OCO3)ccc1F
    2.9 | 1
46	COc1ccc(-c2n[nH]c3c2C(c2ccc(Cl)cc2Cl)NC3=O)cc1 (stereo not given)
    3.0 | 12
47	COc1ccccc1-c1cc(C(F)(F)F)nc(S(=O)(=O)CCCC(=O)Nc2cc(OC)c(OC)c(OC)c2)n1
    0.3 | 10
48	CCOC(=O)c1c(NC(=O)c2ccccc2OCC)sc2c1CCC(CC)C2 (stereo not given)
    -0.7 | -11
49	O=C(O)c1ccc(Cn2c(SCc3ccc(F)cc3)nc3ccncc32)cc1
    -0.1 | 21
50	O=C(CSc1cn(CC(=O)N2CCOCC2)c2ccccc12)Nc1ccccc1F
    0.0 | 3
51	COC(=O)c1cc2occc2n1CC(=O)Nc1cccc(SC)c1
    -0.4 | 12
52	COc1ccc(OC)c(CNC(=O)CN2C(=O)CCn3nc(-c4cn(C)c5ccccc45)cc32)c1
    0.4 | 25
53	Cc1nc(-c2ccc(S(=O)(=O)N3CCN(c4cccc(C(F)(F)F)c4)CC3)cc2)co1
    2.1 | -7
54	COc1ccc(CCNC(=O)CCc2c(C)nc3nc(C)nn3c2C)cc1OC
    -1.0 | -1
55	CCOc1ccccc1C(=O)NC1(C(F)(F)F)C(=O)Nc2c1c(=O)[nH]c(=O)n2-c1ccccc1 (stereo not given)
    0.2 | 15
56	CCN(CC)c1nc2c(S(=O)(=O)c3ccccc3)nnn2c2ccc(Cl)cc12
    3.0 | 44
57	CCOC(=O)C1CCN(S(=O)(=O)c2ccc(N3CCCCS3(=O)=O)cc2)CC1
    -1.0 | 11
58	Cc1ccc(NC(=O)NCc2ccc3c(c2)CCN3C(=O)c2ccccc2)c(Cl)c1
    0.9 | 7
59	CC(C)(C)C(=O)Nc1cc(-c2cccc(Br)c2)nn1-c1ccccc1
    0.9 | -10
60	CC(NC(=O)CCn1c(=O)c2cccn2c2ccc(F)cc21)c1ccccc1 (stereo not given)
    0.4 | -4

Additional entries.
Fields: TRPML1 agonist | TRPML1 blocker
61	COc1ccc(NC(=O)Cn2c(=O)cc(C)c3c(C)nn(-c4cccc(Cl)c4C)c32)cc1OC
    0.3 | -6
62	CC(C)(C)C1CCc2nc(NC(=O)COc3ccccc3[N+](=O)[O-])sc2C1 (stereo not given)
    -1.1 | 5
63	O=C(O)CC1c2ccccc2CCN1C(=O)Nc1cc(Cl)ccc1Cl (stereo not given)
    2.0 | 6
64	CCOc1ccccc1CNC(=O)C1CCN(C2=NS(=O)(=O)C(c3ccc(C)c(C)c3)=C2C)CC1
    1.2 | -12
65	Clc1cccc(CSc2nc(NCCc3ccccc3)c3ccccc3n2)c1
    2.2 | 11
66	Cc1cccc(NC(=O)c2oc3ccccc3c2NC(=O)Cc2coc3ccc(C(C)C)cc23)c1
    -0.2 | -19
67	Cc1c(Cl)cccc1NC(=O)c1cccc(NC(=O)N2CCSc3ncccc32)c1
    1.4 | 34
68	CCCN(C(=O)Cn1c(=O)oc2cc(Cl)ccc21)c1ccc(C(C)C)cc1
    1.1 | 27
69	Clc1ccc(-c2ccc(CNCCSc3nnnn3-c3ccccc3)o2)cc1
    2.3 | 5
70	CC(=O)c1ccc(N2CCN(C(=O)c3cc(S(=O)(=O)N4CCCCCC4)cn3C)CC2)cc1
    -0.9 | -1
71	Cc1[nH]c2ccccc2c1C(=O)C(=O)NC1CC(=O)N(c2cccc(F)c2)C1 (stereo not given)
    0.1 | -15
72	Cc1cccc(C(=O)N2CCc3cc(CNC(=O)c4ccnn4C)ccc32)c1
    -0.4 | -7
73	O=C(CSc1cn(CC(=O)N2CCCCCC2)c2ccccc12)Nc1ccccc1F
    1.6 | 9
74	CCCOc1ccc(C(=O)Nc2ccc3oc(-c4ccncc4)nc3c2)cc1
    -0.3 | 11
75	COc1cccc(C2C(C(=O)Nc3ccc(C)cc3C)=C(C)Nc3c(C(=O)Nc4ccccc4)cnn32)c1 (stereo not given)
    -0.2 | -26
76	COc1ccc(CCN2C(=O)c3oc4cc(C)cc(C)c4c(=O)c3C2c2ccccc2F)cc1OC (stereo not given)
    4.4 | -2
77	Cn1c(=O)n(C)c2cc(CNCc3ccccc3)ccc21
    -0.5 | 1
78	Cc1ccc(CNC(=O)c2sc3nc4n(c(=O)c3c2C)CCCCC4)cc1
    1.1 | -17
79	CCOc1ccc(CNS(=O)(=O)c2ccc3[nH]c4c(c3c2)CCCC4)cc1OC
    3.9 | 10
80	Cc1ccc(Cl)cc1NC(=O)c1oc2ccc(S(=O)(=O)N3CCCCCC3)cc2c1C
    -0.5 | 28
81	Cc1cc(C)cc(OCc2cc(=O)n3cc(C)sc3n2)c1
    0.7 | -5
82	C=Cc1ccc(COc2ccc3oc(-c4ccccc4)c(C(=O)OCC)c3c2)cc1
    0.1 | 8
83	Cc1ccc(Cl)cc1NC(=O)Cn1c(=O)n(Cc2ccccc2)c(=O)c2oc3ccccc3c21
    0.5 | -11
84	CCOc1cc(Cl)c(S(=O)(=O)n2ccnc2)cc1Cl
    -1.2 | 28
85	Cc1ccccc1NC(=O)N1CCc2c(sc3c2CCCC3)C1c1ccccc1 (stereo not given)
    14 | -1
86	Cc1ccc(C(=O)Nc2nc(-c3nnn(-c4cccc(Cl)c4C)c3C)ns2)cc1C
    -0.3 | -8
87	CCc1cnc2c(c1SCC(=O)NCc1ccc(C)cc1)c(=O)n(C)c(=O)n2C
    -0.4 | -19
88	COc1ccc(NC(=O)c2cc3c(s2)-c2c(C)cccc2OC3)cc1Cl
    0.5 | -1
89	CC(C)OCCCNC(=O)c1cc2c(-c3ccc(Cl)cc3)nn(C)c2s1
    2.6 | 55
90	COc1ccccc1C1Nc2c(sc3nc(C)cc(C)c23)C(=O)N1c1ccccc1 (stereo not given)
    0.2 | 35
91	Cc1cc(C)cc(-n2ccnc2SCC(=O)Nc2ccc(C)cc2C)c1
    3.2 | 6
92	CCN1C(=O)c2ccccc2Sc2ccc(NC(=O)N3CCN(c4cc(C)ccc4C)CC3)cc21
    0.2 | 3
93	Cc1nc2c(c(C)c1CCC(=O)N1CCN(c3ccccc3)CC1)c(=O)n(C)c(=O)n2C
    -0.4 | 0

A draw from above in order of count of non-hydrogen atoms, falling.
Fields: TRPML1 agonist | TRPML1 blocker
92	CCN1C(=O)c2ccccc2Sc2ccc(NC(=O)N3CCN(c4cc(C)ccc4C)CC3)cc21
    0.2 | 3
70	CC(=O)c1ccc(N2CCN(C(=O)c3cc(S(=O)(=O)N4CCCCCC4)cn3C)CC2)cc1
    -0.9 | -1
82	C=Cc1ccc(COc2ccc3oc(-c4ccccc4)c(C(=O)OCC)c3c2)cc1
    0.1 | 8
85	Cc1ccccc1NC(=O)N1CCc2c(sc3c2CCCC3)C1c1ccccc1 (stereo not given)
    14 | -1
68	CCCN(C(=O)Cn1c(=O)oc2cc(Cl)ccc21)c1ccc(C(C)C)cc1
    1.1 | 27
89	CC(C)OCCCNC(=O)c1cc2c(-c3ccc(Cl)cc3)nn(C)c2s1
    2.6 | 55
77	Cn1c(=O)n(C)c2cc(CNCc3ccccc3)ccc21
    -0.5 | 1

Single records, from the list above. Order of screens: TRPML1 agonist | TRPML1 blocker
Cc1cccc(NC(=O)c2oc3ccccc3c2NC(=O)Cc2coc3ccc(C(C)C)cc23)c1 as listed: -0.2 | -19
CC(=O)c1ccc(N2CCN(C(=O)c3cc(S(=O)(=O)N4CCCCCC4)cn3C)CC2)cc1 as listed: -0.9 | -1
